RE007 growth inh: qHTS Assay for Inhibitors of the HIV-1 protein Vpr | S. pombe RE007 Vpr strain, BacTiter-Glo ATP luminescence, 24 h; control for the full effect not named in the record | Potency, µM (top dose mostly 92.2 µM), for inactives: at the highest dose activity change, negative = less growth | 360,000 tested, 0.21% active; active = well fitted falling curve with a large enough effect; inconclusive = small, poorly fitted or top-dose-only effect; inactive = no such curve, though single readings can be large or run the other way;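 further: on the % scale 0 is the no-effect control and ±100 the full control effect; nearly all actives have a fitted effect of over 50% in size; the assay follows cell death caused by Vpr and the record does not say whether a fall means rescue or toxicity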
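Fission yeast strain RE007, carrying one chromosomally integrated HIV-1 vpr copy, was seeded at OD 0.01 in PMG+AL medium with 23 nL pinned compound. After 24 h at 30 °C and 99% humidity, viability was read by BacTiter-Glo luminescence.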
MARV entry inh: qHTS for inhibitors of binding or entry into cells for Marburg Virus | Marburg virus pseudotyped entry inhibition, cell reporter; control for the full effect not named in the record; about a third of the inactives were read at about 46 µM | Potency, µM (highest dose often 37.8 µM), for the others: top-dose activity change, negative = inhibition, hits mostly inhibitors | 300,000 tested, 1.8% active | AID 540276, 2011; active = well fitted inhibition curve with a large enough effect; inconclusive = small, poorly fitted or top-dose-only effect, or effect the other way; inactive = flat fitted curve, though single readings scatter; tested in HEK293 cells; about a fifth of its hits are not listed in these tables; further: on the % scale 0 is the no-effect control and ±100 the full control effect; luciferase read-out
SARS PLpro yeast: qHTS of Yeast-based Assay for SARS-CoV PLP; Potency, µM (highest dose often 32.9 µM), without a hit: at the top dose activity, positive = growth rescue; S. cerevisiae expressing SARS-CoV PLpro, growth rescue; control for the full effect not named in the record; 330,000 tested, 0.19% active; further: 0% is about no effect; nearly all actives have a fitted effect of over 55% in size; growth read by luminescence after 48 h
Cruzain Triton: qHTS Assay for Promiscuous and Specific Inhibitors of Cruzain (with detergent). Cruzipain (Trypanosoma cruzi), P25779. purified cruzain, Z-FR-AMC fluorescence, 0.01% Triton. Potency, µM, inactives show max response, negative = inhibition, most hits filed as inhibitors. 200,000 tested, 0.43% active; active means well fitted curve in the direction sought with a large enough effect; inconclusive means small, poorly fitted or top-dose-only effect, or another doubt; inactive means no such curve, though single readings can be large; an effect the other way counts as inactive or inconclusive;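 further: plate controls were neutral wells for no effect and buffer without enzyme for full effect; nearly all actives have a fitted effect of over 40% in size; top concentration of the series not given in the record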
Target sequence (P25779 123-467 limits assumed): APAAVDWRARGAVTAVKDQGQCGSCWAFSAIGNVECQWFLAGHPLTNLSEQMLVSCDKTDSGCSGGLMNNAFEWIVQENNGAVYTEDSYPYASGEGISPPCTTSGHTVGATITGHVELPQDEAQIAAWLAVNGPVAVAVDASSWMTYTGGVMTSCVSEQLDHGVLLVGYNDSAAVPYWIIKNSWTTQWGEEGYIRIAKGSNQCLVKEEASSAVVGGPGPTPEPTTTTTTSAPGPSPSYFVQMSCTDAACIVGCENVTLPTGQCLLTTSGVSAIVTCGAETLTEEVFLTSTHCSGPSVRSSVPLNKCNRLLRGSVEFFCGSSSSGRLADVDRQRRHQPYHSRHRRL
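Detergent-containing run (0.01% Triton X-100) in acetate buffer pH 5.5 with 5 mM DTT: enzyme at 1.5 nM final, 15 min compound preincubation at room temperature, then 2 uM Z-FR-AMC substrate. Activity taken as 60 s fluorescence increase at 360/450 nm.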
NS1 function inh: qHTS Assay for Inhibitors of Influenza NS1 Protein Function | 270,000 tested, 0.4% active | S. cerevisiae slowed by influenza A NS1, growth recovery by OD600 | AID 2326, 2010 | Potency, µM (top dose mostly 46.1 µM), without a hit: at the top dose activity, positive = more growth; further: actives are rising curves; nearly all actives have a fitted effect of over 50% in size
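Growth recovery, yeast-based: influenza A NS1 expressed in S. cerevisiae causes slow growth, and suppressors are detected by OD600. The parent strain without NS1 is used as positive control.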
StopGo reporter: High Throughput Screening for Foot and Mouth Disease Virus Antivirals. 410,000 tested, 1.2% active. AID 1159524, 2015. Potency, µM (top dose mostly 57.9 µM), inactives show at the top dose signal change, negative = less light. human cells with a luciferase reporter of 2A StopGo recoding; control for the full effect not named in the record; active = well fitted falling curve with a large enough effect; inconclusive = small, poorly fitted or top-dose-only effect; inactive = no such curve, though single readings can be large or run the other way; tested in HEK293T cells; further: on the % scale 0 is the no-effect control and ±100 the full control effect; nearly all actives have a fitted effect of over 45% in size; luciferase light after 4 h
Lassa entry inh: qHTS for Inhibitors of binding or entry into cells for Lassa Virus | Lassa virus pseudotype entry inhibition, cell reporter; control for the full effect not named in the record | Potency, µM (top dose mostly 37.9 µM), without a hit: at the top dose activity change, negative = inhibition, most hits filed as inhibitors | 300,000 tested, 1.2% active | AID 540256, 2011; active means well fitted inhibition curve with a large enough effect; inconclusive means small, poorly fitted or top-dose-only effect, or effect the other way; inactive means flat fitted curve, though single readings scatter; tested in HEK293 cells; further: on the % scale 0 is the no-effect control and ±100 the full control effect; nearly all actives have a fitted effect of over 50% in size; luciferase read-out
Cruzain inh noDet: qHTS Assay for Promiscuous and Specific Inhibitors of Cruzain (without detergent) | Cruzipain (Trypanosoma cruzi), P25779 | purified cruzain, Z-FR-AMC fluorescence, no detergent | Potency, µM, for inactives: max response, negative = inhibition, actives largely listed as inhibitors | 200,000 tested, 2.3% active | AID 1476, 2009; active means well fitted curve in the direction sought with a large enough effect; inconclusive means small, poorly fitted or top-dose-only effect, or another doubt; inactive means no such curve, though single readings can be large; an effect the other way counts as inactive or inconclusive;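 further: plate controls were enzyme without inhibitor for no effect and buffer without enzyme for full effect; nearly all actives have a fitted effect of over 40% in size; top concentration of the series not given in the record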
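Detergent-free condition (0.00005% Triton X-100) in acetate buffer pH 5.5 with DTT. 1.5 nM enzyme and compound were pre-mixed 15 min, then 2 uM Z-FR-AMC substrate added; reaction progress from fluorescence change between first and third reads (60 s).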
Starred values were filed as active, the others as inactive; ? = inconclusive; nt = no result given; & = joins results of further samples; [ ] = dose if it differs, or a comment. Unless noted, the call rests on the fitted dose curve; in most records, active means well fitted rising curve with a large enough effect; inconclusive means small, poorly fitted or top-dose-only effect; inactive means no such curve, though single readings can be large or run the other way. Potency means the concentration at half of the fitted maximal effect. An unsorted share of the library; overall some 4.7% were active at least once.

SMILES	RE007 growth inh	MARV entry inh	SARS PLpro yeast	Cruzain Triton	NS1 function inh	StopGo reporter	Lassa entry inh	Cruzain inh noDet
Cc1ccc(C(=O)NCCN2C3=NC[C@H](C(C)C)N3C[C@H]2Cc2ccc(O)cc2)cc1Br	-26.2%	nt	-0.8%	nt	4.6%	-5.1%	nt	nt
O=C(Nc1cccc(F)c1)C1CC(=O)N(c2ccc(Cl)cc2)C1 (stereo unspecified)	0.0%	-30.7%	-4.9%	-6.4%	-41.9%	-6.7%	-5.6%	0.5%
O=C(Nc1nc2ccccc2s1)c1ccc(S(=O)(=O)N2CCCC2)cc1	nt	nt	nt	0.1%	nt	11.3%	?	-11.0%
COc1ccc(C(=O)N/N=C/c2ccc(OC)c(CSc3ccccn3)c2)cc1	-11.8%	4.3%	0.7%	-7.8%	-1.7%	-7.6%	-7.5%	?
CCC(=O)Nc1nnc2n1CCS2	nt	nt	nt	-0.3%	nt	17.3%	1.3%[46.1 µM]	0.2%
Cc1ccc(Cl)cc1N1CCN(C(=O)c2cnn(-c3ccc(Cl)cc3)c2C2CCNCC2)CC1	nt	nt	nt	-16.2%	nt	-24.7%	?	11.6%
Nc1c2nc(-c3ccccc3Cl)[nH]c(=O)c2nc(=O)n1-c1ccccc1	-21.5%	nt	0.9%	nt	-4.5%	5.9%	nt	nt
COc1ccc(/C=N/N2CCN(C)CC2)cc1O	-8.9%	10.6%	-1.7%	-4.3%	7.8%	-13.1%	-0.8%	-13.6%
Cc1cc(C2=NNC(=NC3CC3)SC2)c(C)n1-c1ccccc1	-17.4%	nt	-23.2%	-9.1%	27.0%	0.1µM*	nt	?
O=C(O)c1ccccc1C(=O)Nc1ccc(-n2nccc2C(F)(F)F)cc1	-22.0%	nt	-0.1%	nt	3.5%	9.0%	nt	nt
O=C(NC1CC1)C1=C[C@@H](c2coc3ccccc3c2=O)C[C@@H](OCCCCO)O1	0.9%	nt	-2.8%	nt	-0.1%	-7.4%	nt	nt
N=c1n(CC(=O)c2ccc([N+](=O)[O-])cc2)c2ccccc2n1Cc1ccc(Cl)cc1	-6.8%	nt	3.5%	-1.3%	1.6%	-2.5%	nt	-67.2%
O=C(NCc1ccc(F)cc1)c1cccc(N2CCCS2(=O)=O)c1	nt	nt	nt	1.6%	nt	-23.5%	-5.9%[46.1 µM]	-8.5%
O=C(O)Cc1sc(Nc2ccc(Cl)cc2)nc1-c1cccs1	-3.1%	?	-2.8%	nt	nt	56.9%[activator]	10.7%[46.1 µM]	nt
COc1ccccc1CNC(=O)COC(=O)Cc1ccsc1	13.3%	?	-5.2%	nt	nt	-8.6%	?	nt
Cc1ccc(C)c(N2CCN(C(=O)Cn3c(=O)[nH]c4ccsc4c3=O)CC2)c1	5.1%	6.6%	-9.6%	1.2%	-4.3%	-17.2%	-12.3%	-1.3%
Cc1ccc2c(c1)N(CC(=O)NCCc1ccccc1)C(=O)CO2	nt	0.3%[46.1 µM]	nt	-1.4%	nt	3.2%	-6.9%[46.1 µM]	-3.1%
O=C1OC(c2ccccc2)=N/C1=C\C=C\c1ccccc1[N+](=O)[O-]	nt	22.5%	23.1%	12.6µM*	4.7%	-14.3%	11.8%	15.8µM*
COc1ccc(NC(=O)CNC(=O)Cn2c(C)cc3ccccc3c2=O)c(OC)c1	3.1%	?	6.4%	0.0%	nt	-15.5%&-10.9%	2.0%	-4.0%
O=C(NCc1cccnc1)c1ccc(COc2ccc3c(c2)CCC3)o1	-4.1%	23.1µM*	-6.0%	-7.5%	-71.1%	17.8µM*	?	9.3%
CCOC(=O)c1c(C)[nH]c(C(=O)CSc2nc3ccccc3o2)c1C	-2.6%	-14.1%	0.8%	6.1%	-1.1%	33.2%[activator]	10.5%	-12.6%
Cc1cc(C)c(C)c(S(=O)(=O)NCc2ccco2)c1C	nt	-3.5%	nt	-5.5%	-101.1%	nt	nt	-8.1%
COc1ccc(C(=O)c2coc3ccc(O)c(CN4CCCC4)c23)cc1	-7.8%	nt	2.1%	-3.2%	-1.5%	0.0%	nt	-7.3%
Nc1nc(NCc2cccs2)nn1-c1ccccc1	4.8%	2.7%	nt	nt	7.3%	55.7%[activator]	?	nt
CCOC(=O)c1cc2c(=O)c3cc(C)ccc3oc2nc1C	-20.1%	20.3%[46.1 µM]	-2.2%	nt	0.7%	-1.7%	?	nt
CCOc1cc2sc(N3CCC(C(=O)Nc4ccc(C)cc4C)CC3)nc2cc1Br	nt	?	nt	-1.1%	nt	40.4%[activator]	nt	2.7%
CC(=O)Nc1ccc(OCC(=O)NCCc2ccc(Cl)cc2)cc1	nt	5.4%	?	-1.2%	-10.9%	0.0%	-20.5%	11.3%
Cc1ccc(-n2cccn2)c(CN2CCCC(C(=O)c3ccc4c(c3)OCO4)C2)c1 (stereo unspecified)	-10.4%	10µM*	0.1%	nt	-5.1%	-22.6%	?	nt
Cc1nc(N2CCC(C)CC2)c2c(C)c(C(=O)Nc3ccc(C(F)(F)F)cc3)sc2n1	5.3%	?	0.5%	nt	nt	?	?	nt
N#CC1=C(SCC(=O)Nc2ccccc2)NC(=O)CC1c1ccc(O)cc1 (stereo unspecified)	-0.2%	nt	-0.2%	1.5%	-1.2%	0.0%	nt	0.5%
CCCCc1nnc(NC(=O)C2CC(=O)N(c3ccc4c(c3)OCCO4)C2)s1 (stereo unspecified)	-1.0%	11.0%	-9.2%	-2.3%	-2.0%	7.4%	-0.2%	11.1%
CCN(CC)c1ccc(NC(=O)CSc2nnc3nc(C)cc(C)n23)cc1	-6.0%	-22.4%	9.5%	1.7%	?	-13.7%	13.9%	3.5%
CC1(C)Cc2c(sc3c2C2=NCCN2C=N3)CS1	-3.1%	-1.2%&-1.2%[46.1 µM]	3.2%	0.6%	-3.3%	-8.4%	0.3%	-9.5%
Cc1ccc(S(=O)(=O)NC(Cc2ccccc2)C(=O)NN)cc1 (stereo unspecified)	-3.2%	-6.7%	6.2%	nt	27.6%	-9.7%	?	nt
CCOC(=O)C1=C(CS(=O)(=O)c2ccc(C)c(C)c2)NC(=O)NC1c1ccc(O)cc1 (stereo unspecified)	52.4%	12.9%[46.1 µM]	0.9%	nt	nt	-5.1%	nt	nt
COC(=O)Cn1cnc2c(oc3ccccc32)c1=O	14.9%	nt	?	nt	-24.2%	17.0%	nt	nt

Of the compounds above, 3 contain an aryl thioether with sulfur outside any ring.
SMILES	RE007 growth inh	MARV entry inh	SARS PLpro yeast	Cruzain Triton	NS1 function inh	StopGo reporter	Lassa entry inh	Cruzain inh noDet
COc1ccc(C(=O)N/N=C/c2ccc(OC)c(CSc3ccccn3)c2)cc1	-11.8%	4.3%	0.7%	-7.8%	-1.7%	-7.6%	-7.5%	?
CCOC(=O)c1c(C)[nH]c(C(=O)CSc2nc3ccccc3o2)c1C	-2.6%	-14.1%	0.8%	6.1%	-1.1%	33.2%[activator]	10.5%	-12.6%
CCN(CC)c1ccc(NC(=O)CSc2nnc3nc(C)cc(C)n23)cc1	-6.0%	-22.4%	9.5%	1.7%	?	-13.7%	13.9%	3.5%

Next section
SMILES	RE007 growth inh	MARV entry inh	SARS PLpro yeast	Cruzain Triton	NS1 function inh	StopGo reporter	Lassa entry inh	Cruzain inh noDet
Cc1ccc(S(=O)(=O)Nc2cc(-c3ccccc3)nn2C)cc1Cl	-4.6%	-11.6%[46.1 µM]	-0.2%	nt	-5.5%	-3.4%	26.1%[46.1 µM]	nt
COc1ccc(-c2nc(CSCC(=O)NC3CCCc4ccccc43)c(C)o2)cc1 (stereo unspecified)	-8.0%	?	-9.2%	-6.7%	-57.2%	-22.8%	-7.0%	3.4%
CC1CCCN(CCOCCSc2ccccc2)C1 (stereo unspecified)	-0.7%	?	0.7%	-0.1%	-9.3%	-26.5%	?	5.1%
CC1CCN(CC2CCN(C(=O)NCc3ccc(F)cc3)CC2)CC1	nt	nt	nt	3.1%	nt	-0.6%	14.1%[46.1 µM]	0.9%
O=C(CNC(=O)c1ccco1)N/N=C/c1ccc(O)cc1O	0.0%	nt	3.2%	nt	18.5%	7.2%	nt	nt
O=C(NCCc1cccs1)c1ccc(CS(=O)Cc2ccc(Cl)cc2)o1 (stereo unspecified)	-2.3%	nt	-0.2%	nt	-4.4%	7.6%	nt	nt
COc1ccc2c(Cl)c(C(=O)N/N=C/c3c(C)[nH]c4ccccc34)sc2c1	17.5%	?	-24.0%	-6.9%	?	-17.5%	-0.8%	?
COc1ccc(-c2n[nH]c(=S)n2/N=C/C=C/c2ccccc2OC)cc1	nt	-21.1%	2.1%	-4.3%	16.2%	21.3%	?	-24.2%
CC1(C)C2CCC1(CS(=O)(=O)Nc1cccc(S(N)(=O)=O)c1)C(=O)C2 (stereo unspecified)	1.5%	nt	1.4%	nt	-0.4%	21.6%	nt	nt
COc1ccc(C(CC(=O)Nc2ccccc2OC)n2cccc2)cc1 (stereo unspecified)	-13.3%	?	-0.3%	-3.8%	0.9%	-29.5%	-24.2%	3.7%
Cc1ccc(NC(=O)C2CC(=O)Nc3ncnn32)c(C)c1 (stereo unspecified)	7.8%	nt	-3.2%	nt	-13.5%	8.2%	nt	nt
Cc1ccc(CNCC(O)(c2ccc(F)cc2)c2ccc(F)cc2)cc1	-4.1%	-7.5%	3.8%	2.5%	1.1%	-22.4%	4.0%	-6.5%
C/C(=N\NC(=O)C(N)=O)c1ccc(Br)cc1	-20.0%	?	-16.4%	-2.2%	10.4%	12.2%	2.0%	-14.6%
